From PubChem
MgrA DNA FP: S. aureus MgrA-DNA binding modulation; fluorescence polarization; inhibition, %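 (about 10 µg/mL by stock and volumes)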; actives 0.13% (n = 84,000); AID 602314;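 active means above 50% in either of two replicates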;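 further: 0% = protein plus DNA without compound and 100% = DNA alone without protein; higher means less MgrA bound to DNA so lower polarization; one replicate is shown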
S aureus helic: blocks Staphylococcus aureus DNA helicase; actives 0.05% (n = 120,000); purified S. aureus helicase, fluorescence unwinding assay; about half of the hits fall short of the stated cut; inhibition, %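 (tested at about 80 µM)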; AID 485395;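 active means both duplicates at 50% or more, or one of them with a favoured structure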;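 further: 0% = mean of negative control wells and 100% = mean of positive control wells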
Active calls of the source: *; / = not tested or not shown; & = joins results of further samples. Only part of the results is shown (hit frequency here may not be typical).

MgrA DNA FP,S aureus helic,molecule
-0.7,6,CC(SCc1ccccc1)C(=O)NCc1ccccn1 (stereo not drawn)
9.3,/,COc1ccc(C2C3=C(CC(C)(C)CC3=O)OC3=C2C(=O)CC(C)(C)C3)cc1
-2.8,-4,COc1ccc(OC)c(C2C(C#N)=C(N)Oc3cc(C)oc(=O)c32)c1 (stereo not drawn)
-2.0,/,O=C(c1ccc(-n2cccn2)cc1)N1CCN(c2ncccc2C(F)(F)F)CC1
-0.1,/,Cc1onc(-c2c(F)cccc2Cl)c1C(=O)N1CC(Oc2ccc(Cl)cc2)C1
/,-9,O=C(COC(=O)CSc1nc2ccccc2o1)NC1CC1
/,-10,CCN(CC)S(=O)(=O)c1ccc2nnn(OCC(=O)NCc3ccccc3OC)c2c1
3.1,-2,CC1CCN(S(=O)(=O)c2ccccc2)CC1
/,-6,O=C1CCCc2oc(=O)ccc21
-0.5,/,FC(F)(F)c1ccc(CSc2nccc(-c3cccnc3)n2)cc1
0.0,/,NS(=O)(=O)c1ccc(Sc2ccccc2)s1
-0.2,8,CCOC(=O)c1cc(NC(=O)C2C3C=CC(O3)C2C(=O)O)cc(C(=O)OCC)c1 (stereo not drawn)
/,4,O=C(O)CC1(CC(=O)N2CCN(c3ccccc3)CC2)CCCC1
/,-5,CCOC(=O)C(C#N)=C1C=CN(c2ccccc2)C=C1
-1.8,-4,COC(=O)Cc1[nH]n(-c2ccc(OC)cc2)c(=O)c1C(C)=NC(C)(C)C
/,7,CCN1C(=O)C2(/C(=C(/O)c3ccc(F)cc3)C(=O)C(=O)N2CCN2CCOCC2)c2ccccc21 (stereo not drawn)
0.9,/,CCOC(=O)C1=C(C)N=c2s/c(=C3\C(=O)N(C(C)=O)c4ccccc43)c(=O)n2C1c1ccc(OC(C)=O)cc1 (stereo not drawn)
-0.6,2,Cc1nc2ccc(S(=O)(=O)CCC(=O)NCc3cccs3)cc2s1
/,-1,Cc1nn(Cc2ccc(F)cc2)c2sc(C(=O)Nc3ccc(S(=O)(=O)N4CCCC4)cc3)cc12
/,12,O=C(Cn1[nH]c(=O)c2ccccc2c1=O)OCC(=O)N1CCCc2ccccc21

The last 2 records of the part before are carried over, then new ones follow.
MgrA DNA FP,S aureus helic,molecule
/,-1,Cc1nn(Cc2ccc(F)cc2)c2sc(C(=O)Nc3ccc(S(=O)(=O)N4CCCC4)cc3)cc12
/,12,O=C(Cn1[nH]c(=O)c2ccccc2c1=O)OCC(=O)N1CCCc2ccccc21
/,-13,c1ccc(-c2nccnn2)cc1
1.1,-11,COc1cccc(C(CC(=O)Nc2sc3c(c2C#N)CCCC3)NC(=O)c2ccccc2)c1 (stereo not drawn)
3.4,11,CCC(=O)Nc1cc(C(C)C)c(O)cc1C
/,4,O=C(CCS(=O)(=O)c1cc(Br)cc2c1N(C(=O)C1CC1)CC2)Nc1cc(F)ccc1F
-0.4,/,O=C1c2ccccc2S(=O)(=O)N1CCS(=O)(=O)c1ccc(F)cc1
-0.8,15,C=CCn1c(SCC(=O)Nc2nnc(CC)s2)nnc1-c1cccs1
-2.8,6,O=C(CC1c2ccccc2Oc2ccccc21)NCc1ccco1
/,19,CCOC(=O)C1=C(C)NC(C)=C(C(=O)OCC)C1C(=O)OCC(=O)N1CCc2ccccc2C1
1.9,3,COc1cc2c(cc1OC)C(NN)=NC(C)(C)C2
-2.3,4,COC(=O)C1=C(C)N(CC2CCCO2)C(=O)/C1=C\c1ccccc1 (stereo not drawn)
2.7,14,COc1cc(C(=O)Nc2c3c(nn2-c2ccc(F)cc2)CS(=O)(=O)C3)cc(OC)c1OC
-3.0,/,O=C(O)c1cc(C(F)(F)F)ccc1Cl
/,9,O=C(O)COc1ccccc1/C=C1/C(=O)Nc2cc(Cl)ccc21
-3.1,8,Clc1cccc2sc(N3CCCC3)nc12
/,3,C=CCC1C=CCC(CC=C)N1C(C)=O (stereo not drawn)
-1.6,7,COc1ccccc1Nc1ncnc2c1cnn2-c1ccccc1
-1.0,8,Cn1c(CSc2nc3ccccc3s2)nnc1SCC(=O)NCCCN1CCOCC1
0.6,1,CC1CN(Cc2ccccc2Cl)CC(C)O1 (stereo not drawn)
/,-1,CCCC[n+]1c(C)csc1Nc1ccccc1
-1.1,/,Cc1cccc(C)c1NC(=O)CCN1CCCC1

Of the compounds above, three have a cyano group.
MgrA DNA FP,S aureus helic,molecule
-2.8,-4,COc1ccc(OC)c(C2C(C#N)=C(N)Oc3cc(C)oc(=O)c32)c1 (stereo not drawn)
/,-5,CCOC(=O)C(C#N)=C1C=CN(c2ccccc2)C=C1
1.1,-11,COc1cccc(C(CC(=O)Nc2sc3c(c2C#N)CCCC3)NC(=O)c2ccccc2)c1 (stereo not drawn)

Single records, as listed above. Values in the order: MgrA DNA FP | S aureus helic
Results for O=C1c2ccccc2S(=O)(=O)N1CCS(=O)(=O)c1ccc(F)cc1 : -0.4 | /
Results for C=CCn1c(SCC(=O)Nc2nnc(CC)s2)nnc1-c1cccs1 : -0.8 | 15

The results go on.
MgrA DNA FP,S aureus helic,molecule
-1.2,/,NC(=O)c1csc(-c2cccnc2)n1
/,8,COc1ccc(CNC(=O)c2noc(C)c2CN2CCOCC2)cc1
3.2,-16,CCCCN(C(=O)c1cc(OC)c(OC)c(OC)c1)C1=CC2CCC(C1)N2C (stereo not drawn)
/,13,Cc1nc2c3ccccc3n3c(CCCC(=O)NC4CC4)nnc3n2n1
-4.3,8,CS(=O)(=O)c1nc2ccccc2[nH]1
/,-15,COc1ccc(NC(=O)CSc2c[nH]c3ccccc23)cc1
0.0,7,CNc1c(NC(=O)c2cccc(F)c2)c(=O)oc2ccccc12
/,9,COc1ccc(Cl)cc1NC(=O)c1oc2ccc(S(=O)(=O)N3CCC4(CC3)OCCO4)cc2c1C
/,-1,CCOC(=O)/C=C1\SCC(=O)N1CC(=O)NC1CCCc2ccccc21 (stereo not drawn)
/,-5,CC1=C/C(=N\Nc2ncc(Cl)cc2Cl)CC(C)(C)C1
7.3,0,CCOC(=O)c1c(C)cc(C)[nH]c1=S
/,4,NC1(C(F)(F)F)Oc2cc(Cl)c(Cl)cc2O1
3.6,-12,CN(CC(=O)Nc1sc2c(c1C(=O)c1cccs1)CCCC2)C1CCCCC1
/,20,Cc1cc2occ(CC(=O)Oc3ccc(-c4nnco4)cc3)c2cc1C(C)C
7.9,15,CCCN1CC=C2C(C#N)=C(N)C(C#N)(C#N)C(c3ccc(OCC(N)=O)cc3)C2C1 (stereo not drawn)
-2.1,-4,CSc1ccccc1NC(=O)Cc1ccccc1
/,11,C=C1c2ccccc2N=C(SCC(=O)Nc2cccnc2Cl)N1C
/,9,CC(=O)NC12CC3CC(C1)CC(C(=O)N1CCN(Cc4ccccc4)CC1)(C3)C2
0.5,10,CCOc1ccccc1NC(=O)c1cccc(NC(=O)c2ccco2)c1
3.3,-13,CSc1nnc2c(n1)OC(C)Nc1ccccc1-2 (stereo not drawn)

The listing continues:
MgrA DNA FP,S aureus helic,molecule
-1.8,10,CN1C(=O)c2ccccc2N(C)C1c1ccc(F)cc1 (stereo not drawn)
/,17,CCOC(=O)C1CCN(C(=O)c2ccc(NC(=O)C3CCCO3)cc2)CC1 (stereo not drawn)
/,7,O=C(CCC(=O)N1CCOc2ccccc21)N1CCOCC1
-1.6,7,O=C1CC(c2ccc(S(=O)(=O)N3CCCCC3)cc2)CN1 (stereo not drawn)
0.1,7,O=C(NCCc1ccccc1)C1CC(=O)N2CCN=C2S1 (stereo not drawn)
/,14&4,CCOC(=O)NCc1ccc2[nH]c(C)cc2c1
/,-17,CC1(C)CC(=O)C(C=NCCO)=C(O)C1
/,-7,O=C(CN1C(=O)C(c2ccccc2)=NC12CCCC2)Nc1ccc(Cl)cc1
-2.0,18,Cn1c(=O)cc(OCCCC(=O)NC2CCCCC2)c2ccccc21
24,10,COCCN1C(=O)/C(=C/c2cn(CC(=O)OC)c3ccccc23)C(=O)N(c2ccccc2)C1=O
/,-3,CN(Cc1ccccc1)S(=O)(=O)c1ccc2c(c1)n(C)c(=O)c(=O)n2C
/,14,Cc1csc(NN=C2CCCCC2)n1
/,1,CCn1nccc1NC(=O)c1ccc(Cl)c(S(=O)(=O)N(C)c2ccccc2)c1
1.1,1,CC(C)(C)C(=O)COC(=O)c1cc(Br)ccc1Cl
/,-17,Cc1cc(CCN)c(C)n1-c1ccccc1
-1.8,/,C=CCn1c(SCC(=O)c2ccccc2)nnc1-c1sc2nc(C)cc(C)c2c1N
/,13,CCN(CC(=O)Nc1ccc2c(c1)OCCO2)c1ccc(S(=O)(=O)N2CCOCC2)cn1
/,-8,COc1cc(C2C(C#N)=C(N)Oc3nc[nH]c(=O)c32)ccc1OCC(N)=O (stereo not drawn)
0.1,3,CCCNC(=O)c1ccc(-n2c(-c3ccccc3)cc3c2CCCC3)cc1
/,-6,CC1CCCCN1C(=O)COC(=O)Cc1c[nH]c2ccccc12 (stereo not drawn)

Reprinted at random: seven entries already listed, in no set order.
MgrA DNA FP,S aureus helic,molecule
-1.6,7,O=C1CC(c2ccc(S(=O)(=O)N3CCCCC3)cc2)CN1 (stereo not drawn)
/,1,CCn1nccc1NC(=O)c1ccc(Cl)c(S(=O)(=O)N(C)c2ccccc2)c1
/,-7,O=C(CN1C(=O)C(c2ccccc2)=NC12CCCC2)Nc1ccc(Cl)cc1
/,-17,CC1(C)CC(=O)C(C=NCCO)=C(O)C1
/,17,CCOC(=O)C1CCN(C(=O)c2ccc(NC(=O)C3CCCO3)cc2)CC1 (stereo not drawn)
0.1,7,O=C(NCCc1ccccc1)C1CC(=O)N2CCN=C2S1 (stereo not drawn)
-1.8,10,CN1C(=O)c2ccccc2N(C)C1c1ccc(F)cc1 (stereo not drawn)

Additional structures follow.
MgrA DNA FP,S aureus helic,molecule
/,17,COc1ccc(Cl)cc1NC(=O)CN1C(=O)CSC(C)C1=O (stereo not drawn)
1.2,/,CCc1cc(=O)[nH]c(SCc2ccc(F)cc2)n1
/,-44,CCN(CC)c1ccc(NC(=O)c2ccc(C)cc2)c(N(CC)CC)n1
-8.9,5,COc1cccc(CN2CCC(C(=O)N3CCc4ccccc4C3)CC2)c1OC
/,-3,O=C(OCc1cc(=O)n2c3c(sc2n1)CCCC3)C1CCCN1S(=O)(=O)c1ccccc1F (stereo not drawn)
-1.1,17,NC(=O)/C(=N/O)C1=NC2(CCCCC2)Cc2ccccc21
/,7,CC/C(O)=C(\C#N)c1nc2ccccc2[nH]1
/,2,O=C(O)C1CCN(C(=O)/C=C/c2ccccc2)CC1
0.8,11,CCOc1ccc(S(=O)(=O)N(CC(=O)N2CCC(C)CC2)c2ccccc2)cc1
-1.4,/,O=S1(=O)CCN(Cc2cc3ccccc3s2)CC1
-1.7,15,Cc1ccc(OCCOCCN2CCCCC2)c(C)c1
-0.8,/,O=C(O/N=C/c1ccc2c(c1)OCO2)c1ccccc1Br
-3.4,15,CCOc1ccc(OCCN2CCN(C)CC2)cc1
/,-83,COCCOC(=O)c1sc(=S)n(CCOC)c1N
-3.6,9,Cc1nn2c(C)c(C(=O)Nc3ccccc3)cnc2c1C#N
16,4,Cn1c(=O)n(C)c2cc(/C=C3\C(=O)NC(=O)N(c4ccc(Cl)cc4)C3=O)ccc21
4.6,17,CCOCCC(=O)N1CCN(C)CC1
-2.6,-3,Cn1c(CN)nnc1SCc1ccccc1
/,0,Cc1[nH]c(C(=O)NCCCN2CC(C)CC(C)C2)c(C)c1C(=O)NC1CCCCC1 (stereo not drawn)
4.7,11,CCc1nnc(NC(=O)COC(=O)CSc2nc(-c3ccccc3)cc(-c3ccccc3)n2)s1

New compounds follow:
MgrA DNA FP,S aureus helic,molecule
-0.2,-15,O=C(CCNc1ccc(Cc2ccncc2)cc1)c1ccco1
-2.0,2,c1ccc2sc(NC3=NCN(CC4CCCO4)CN3)nc2c1 (stereo not drawn)
-1.0,7,NC1=NC(=O)C(CC(=O)O)CS1 (stereo not drawn)
0.2,12,O=C(O)CN(CCc1ccccc1)S(=O)(=O)c1ccccc1
3.8,9,Cc1c(C(=O)N2CCCCCC2)oc2ccccc12
-1.9,/,CN(CCc1ccccn1)C(=O)c1cccnc1Oc1ccccc1
-2.8&0.6,/,O=C(O)c1ccccc1C(=O)Nc1ccc(S(=O)(=O)Nc2nccs2)cc1
/,19,N#Cc1c(NC2CCCCC2)nc(-c2ccco2)c2c1CCCC2
/,-19,C=C(C(=O)O)C(CC(=O)O)C(=O)O (stereo not drawn)
/,-3,CC(NS(=O)(=O)c1ccccc1)C(c1cccs1)N1CCN(c2ccccc2)CC1 (stereo not drawn)
/,12,Cc1ccc(C)c(NC(=O)CN(C)S(=O)(=O)c2ccc3c(c2)CCCC(=O)N3)c1
/,-19,CCN1CCN(C(c2cccs2)C(C)NS(C)(=O)=O)CC1 (stereo not drawn)
0.3,20,COc1ccc(-c2csc(NCCCN(C)C)n2)cc1
/,26,O=C(c1ccccc1)c1ccc(C(=O)N2CCN(c3ccc(O)cc3)CC2)cc1
-1.3,/,NC(=O)c1cccnc1Oc1ccccc1
0.6,7,CCOc1ccc(C(NC(=O)c2ccco2)c2ccc(OC)c(OC)c2)cc1 (stereo not drawn)
/,3,CCc1ccc(NC(=O)NCc2c(C)nn(C)c2C)cc1
/,24,COc1cc2c(cc1OC)C(C(=O)N1CC(C)CC(C)C1)C(c1cccnc1)N(C)C2=O (stereo not drawn)
/,2,N=c1oc2ccc(Cl)cc2cc1C(=O)Nc1ccc(F)cc1
-1.5,/,CC1(C)OC2C(COS(C)(=O)=O)OC(n3cnc4c(=O)[nH]cnc43)C2O1 (stereo not drawn)
/,13,Cc1nnsc1-c1onc(C)c1C(=O)O/N=C(\N)c1cc(C(F)(F)F)cc(C(F)(F)F)c1
/,18,Cn1c(C(=O)N2CCCC(C(=O)N3CCc4ccccc4C3)C2)cc2sccc21 (stereo not drawn)
